TRPV1 potentiator – potentiators of human vanilloid receptor 1 (TRPV1); Q8NER1; TRPV1-expressing cells, Fluo-8 calcium influx, capsaicin EC20 potentiation; host cell line not named in the record; control for the full effect not named in the record; potentiation, % at 8.33 µM; 0.02% of 320,000 active; active means potentiation above 80%; inconclusive means 30% to 80%; inactive means below 30%; also: 0% is about no effect
Target sequence (Q8NER1 whole entry, looked up): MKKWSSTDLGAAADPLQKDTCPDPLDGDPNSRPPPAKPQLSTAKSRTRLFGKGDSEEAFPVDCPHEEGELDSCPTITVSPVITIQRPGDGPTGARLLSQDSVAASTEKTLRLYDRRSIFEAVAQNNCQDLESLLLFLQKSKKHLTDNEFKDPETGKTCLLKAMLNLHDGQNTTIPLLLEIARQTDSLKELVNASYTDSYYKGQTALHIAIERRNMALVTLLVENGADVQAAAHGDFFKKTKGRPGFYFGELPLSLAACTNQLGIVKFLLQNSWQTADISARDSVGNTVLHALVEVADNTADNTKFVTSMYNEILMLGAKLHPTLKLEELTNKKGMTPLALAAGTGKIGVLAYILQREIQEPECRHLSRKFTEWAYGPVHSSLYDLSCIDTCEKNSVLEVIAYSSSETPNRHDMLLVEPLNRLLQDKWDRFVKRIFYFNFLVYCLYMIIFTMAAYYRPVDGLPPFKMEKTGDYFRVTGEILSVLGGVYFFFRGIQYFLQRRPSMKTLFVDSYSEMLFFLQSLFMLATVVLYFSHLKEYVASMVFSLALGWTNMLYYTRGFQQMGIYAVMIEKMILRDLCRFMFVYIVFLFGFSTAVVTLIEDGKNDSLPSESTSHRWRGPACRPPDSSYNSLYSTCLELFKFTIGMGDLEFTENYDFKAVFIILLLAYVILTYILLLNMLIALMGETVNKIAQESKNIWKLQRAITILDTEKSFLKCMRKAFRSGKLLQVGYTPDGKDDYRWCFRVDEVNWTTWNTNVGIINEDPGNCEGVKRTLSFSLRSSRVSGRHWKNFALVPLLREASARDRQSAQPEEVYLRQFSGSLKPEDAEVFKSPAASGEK
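Fluo-8 calcium influx in TRPV1-expressing cells, kinetic read (ex 480/em 520 nm). Compound added and read 3 min for agonist activity, followed by capsaicin at EC20 final and 2 min further read for enhancement.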
gsp antagonist – antagonists of gsp mutant (McCune-Albright syndrome) | 0.4% of 340,000 active | AID 624288 | Potency, µM (doses to about 76.9 µM), for inactives: top-dose activity change, negative = inhibition, most hits filed as inhibitors | gsp-mutant cells, cAMP HTRF, 30 min; control for the full effect not named in the record; active = falling curve of any shape with a large fitted effect; inconclusive = falling curve, mostly with a smaller effect; inactive = flat or rising curve; cell line not stated here;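 also: intracellular cAMP measured with PDE inhibitor Ro 20-1724 present during compound exposure; potency is read from the fitted curve at half-maximal effect; % is scaled to controls: 0 for no effect and ±100 for the full control effect; nearly all actives have a fitted effect of over 65% in size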
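Measurement of cellular cAMP by homogeneous time-resolved fluorescence following a 30 min compound exposure at 37C. The PDE inhibitor […] was present throughout; the assay buffer was DPBS with 0.05% BSA and 0.005% Tween 20.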
Sfp PPTase inh – Sfp phosphopantetheinyl transferase inhibition. Q9F4F7. Biochemical Sfp PPTase activity, qHTS. Potency, µM, for the others: max response, negative = inhibition, hits mostly inhibitors. 3.5% of 310,000 active; active = well fitted inhibition curve with a large enough effect; inconclusive = small, poorly fitted or top-dose-only effect, or another doubt; inactive = no such curve, though single readings can be large or run the other way;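 also: the enzyme is Sfp with the accession as filed and its product quenches rhodamine fluorescence; potency is read from the fitted curve at half-maximal effect; 0% = enzyme reaction without inhibitor and -100% = no enzyme wells; top concentration of the series not given in the record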
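Fluorescence-quenching assay with 15 nM Sfp, 5 uM rhodamine-CoA and 12.5 uM BHQ-2-labelled ybbR peptide in pH 7.6 Hepes/MgCl2 buffer. Enzyme was pre-incubated with compound for 15 min at room temperature. Rate was taken from the 30-min fluorescence change (525/598 nm).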
Menin-MLL FL inh – displaces fluorescein MLL peptide from human menin; Fluorescence polarization, fluorescein-MLL peptide displacement from menin; FP activity change, % at 61.4 µM; 290,000 tested, under 10 active; inconclusive = falling polarisation curve, or a change in total fluorescence; inactive = total fluorescence flat and polarisation flat or rising; no compound was filed as active; the % refers to the polarisation; negative = inhibition;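 also: % of control where 0% means no effect; inhibitors lower the polarisation; unlabelled MLL peptide was the positive control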
gsp agonist – activates gsp, the McCune-Albright syndrome mutation; gsp mutant cells, cAMP HTRF, 30 min; control for the full effect not named in the record; Potency, µM (top dose mostly 76.9 µM), inactives show top-dose activation (cAMP increase), hits mostly activators; 0.13% of 340,000 active; AID 624287; active = well fitted activation curve with a large enough effect; inconclusive = small, poorly fitted or top-dose-only effect, or another doubt; inactive = no such curve, though single readings can be large or run the other way; cell line not stated here;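 also: phosphodiesterase inhibitor Ro 20-1724 added with compounds to block cAMP breakdown; potency is read from the fitted curve at half-maximal effect; nearly all actives have a fitted effect of over 60% in size; about a fifth of the inactives were tested at one dose only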
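Cells stably selected in G418 were plated at 2000/well, grown 16-24 hr, then given compounds in DMSO with the PDE inhibitor […] (300 uM solution added) for 30 min at 37C; cAMP was read by HTRF.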
ClpP mod – qHTS Assay for Activators of ClpP; ATP-dependent Clp protease proteolytic subunit (Bacillus subtilis (strain 168)), P80244; purified B. subtilis ClpP, FRET peptide cleavage, 20 min; Potency, µM (highest dose often 57.5 µM), inactives show at the top dose activity change, negative = active; 1.9% of 340,000 active; AID 651965, 2013; active = well fitted falling curve with a large enough effect; inconclusive = small, poorly fitted or top-dose-only effect; inactive = no such curve, though single readings can be large or run the other way; also: potency is read from the fitted curve at half-maximal effect; the source files actives as falling curves though it sought activators and does not explain the sign; nearly all actives have a fitted effect of over 65% in size; many hits overshoot -100%
Target sequence (P80244 whole entry, looked up): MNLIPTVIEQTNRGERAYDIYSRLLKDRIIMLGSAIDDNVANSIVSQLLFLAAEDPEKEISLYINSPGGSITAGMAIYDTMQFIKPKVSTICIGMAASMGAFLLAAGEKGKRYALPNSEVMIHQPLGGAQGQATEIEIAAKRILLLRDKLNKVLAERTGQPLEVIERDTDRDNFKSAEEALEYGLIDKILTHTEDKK
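Purified B. subtilis ClpP, 10 microg/mL final in Tris/HCl pH8 with KCl, BSA, glycerol and Tween-20, cleaved an Abz/nitrotyrosine-quenched decapeptide. Fluorescence (ex 320, em 430) was read at 0 and 20 min at room temperature. Delta was normalized to 5.8 microM ADEP and DMSO/no-enzyme controls.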
D2 potentiator – positive allosteric modulators of human D2 dopamine receptor | P14416 | DiscoveRx D2 beta-arrestin cells, luminescence, 90 min; 100% = 57 uM dopamine signal | potentiation, % (concentration not given with the values) | 0.23% of 360,000 active; active = potentiation of 50% or more; inconclusive = 30% to 50%; inactive = 30% or less;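 also: compound concentration not given in the record; tested on top of an EC20 dose of dopamine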
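D2 cells co-treated with compound plus 50 nM dopamine (EC20) for 90 min at 37 deg C to detect potentiation. Beta-arrestin recruitment was read as enzyme-fragment luminescence after 1 h at ambient temperature. Full response was set by 57 uM dopamine.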
* marks the source's active call; other numbers are inactive results; ? = inconclusive; . = no result given; & = joins results of further samples; [ ] = remark or other dose.

SMILES	TRPV1 potentiator	gsp antagonist	Sfp PPTase inh	Menin-MLL FL inh	gsp agonist	ClpP mod	D2 potentiator
COc1ccc(OC)c(S(=O)(=O)Nc2cccc(-c3ccc(N4CCCCCC4)nn3)c2)c1	15	-25%	8%	.	?	-12%&-7.9%	-12
O=C(Nc1ccccc1-c1nnc(SCc2ccccc2Cl)o1)c1ccccc1	10	7%	13%	0.8	8%	20µM*	-1
Cc1oc2c(c1C(=O)c1ccccc1)C(=O)C(=O)c1ccccc1-2	-3	?	50µM*	4.7	1%	1.8%	12
COc1ccc(CNC(=O)C2CSCCS2)cc1 (stereo unspecified)	-4	-1%	25%	-0.7	?	1.4%	-6
O=S(=O)(NCCC1=CCCCC1)c1cccc(S(=O)(=O)N2CCOCC2)c1	-9	-8%	14%	4.9	-26%	-2.2%	-5
Cc1c(NC(=O)c2cc(-c3ccc(O)cc3)on2)c(=O)n(-c2ccccc2)n1C	-6	-4%	19%	4.1	1%	1.6%&-1.5%	-3
CC(C)CNC(=O)c1cc(-c2ccco2)on1	5	3%	12%	5.9	?	-9.5%	-3
CS(=O)(=O)N1CCN(c2ccc(NC(=O)C(c3ccccc3)c3ccccc3)cc2)CC1	-7	-13%	15%	-1.3	-18%	-1.8%	-7
Cc1cc(C)cc(NS(=O)(=O)c2ccc3[nH]c(=O)[nH]c3c2)c1	-1	6%	12%	-0.2	45%	-0.3%	8
Cc1ccc(C(=O)N[C@@H](C)CN2C3=NC[C@H](C)N3C[C@H]2Cc2ccc(O)cc2)cc1Br	-25	.	2%	0.3	.	.	.
O=C1C(=O)c2ccccc2C([O-])=C1[n+]1ccccc1	9	11%	7%	1.0	-17%	0.3%	-10
COc1ccc(CNC(=O)c2ccc(N3CCC4(CC3)CC(c3ccc(Cl)cc3)=NO4)c([N+](=O)[O-])c2)cc1	.	-3%	.	.	?	1.3%	-2
CN(Cc1cccnc1)C(=O)c1ccc(Cl)c(NS(=O)(=O)c2ccc(F)cc2)c1	22	0%	.	.	-66%[inhibitor]	0.9%	-7
Cc1oc(C(C)(C)C)cc1-c1cc(NC(=O)c2ccc([N+](=O)[O-])cc2)n[nH]1	1	4%	-3%	1.9	8%[15.4 µM]	.	0
Cc1ccc(-n2c(=O)c3sccc3n(CC(=O)NC3CCCCC3)c2=O)cc1	3	-8%	-1%	-3.1	-2%	-2.6%	-5
COc1ccccc1/C=N\NC(=O)c1c(C)nc2ccc(Cl)cn12	4	-18%	19%	0.3	-25%	-13%	-2
Cc1cc(S(=O)(=O)Nc2c(C)ccc3nsnc23)ccc1F	7	0%	5%	-2.9	-55%[inhibitor]	-1.5%	-15
CC1=C(C(=O)OC(C)C)C(c2cccnc2)C2=C(CCCC2=O)N1 (stereo unspecified)	-4	-2%	9%	-1.2	15%	28µM*	-2
Cc1cc(Cl)ccc1OCC(=O)NCCOC(=O)Nc1sc(=S)n(C)c1C	-1	-17%	-6%	2.7	3%[15.4 µM]	.	-17
CC(C)(C)c1ccc(OC(=O)c2ccc3snnc3c2)cc1	-7	22%	-9%	1.5	0%[15.4 µM]	0.5%	-10
COc1cc2sc3ccc(-c4ccc5[nH]ccc5c4)cc3c(=O)c2cc1OC	.	-10%	.	.	-3%	0.4%	5
COCCNCc1ccccc1[N+](=O)[O-]	-9	2%	.	.	.	-1.9%	-42
C/C(=N\NC(=O)c1ccc2c(c1)OCO2)c1ccco1	-19	-39%	9%	-2.3	11%[15.4 µM]	.	-2
Cc1ccc(S(=O)(=O)N2CCOCC2)cc1NC(=O)CN(C)CC(=O)Nc1cccc(F)c1	.	.	.	.	0%	0.3%	-23
CCCCC#Cc1cncc(C(=O)N/N=C/c2cccc(OC)c2)c1	-7	-11%	20%	-1.1	-21%	-4.5%	-6
Next part:
SMILES	TRPV1 potentiator	gsp antagonist	Sfp PPTase inh	Menin-MLL FL inh	gsp agonist	ClpP mod	D2 potentiator
CCc1noc(C)c1C(=O)Nc1nnc(C(CC)CC)s1	5	-2%	.	.	-20%	-3.1%	-2
O=C(COC(=O)c1ccccc1[N+](=O)[O-])c1ccc2c(c1)OCO2	-15	11%	.	.	5%[15.4 µM]	0.7%	4
Nc1ccccc1C(=O)N1CCc2ccccc21	?	2%	2%	-4.3	?	-14%	-4
Cc1onc(-c2ccccc2)c1C(=O)NNC(=S)NC(=O)c1ccc(Cl)cc1Cl	-36	-1%	14%	.	-19%	-1.1%	-13
Cc1ccc(Cn2c(N/N=C/c3ccncc3)nc3c2c(=O)n(C)c(=O)n3C)cc1	9	17%	19%	19	4%[15.4 µM]	-4.3%	-6
Cc1cccc(NC(=S)N2CCN(S(=O)(=O)c3ccccc3)CC2)c1	-4	-3%	4%	.	-13%	-0.2%	-13
CCCCC(=O)Nc1ccc(NC(=S)NC(=O)c2ccco2)cc1OC	-3	-6%	?	4.1	-9%	.	-10
O=C(NCc1nnc(SCC(=O)N2CCOCC2)o1)c1cccs1	-3	10%	-18%	5.8	?	-2.2%	-4
CCCCn1c(N)c(N(CCC(C)C)C(=O)C2CC(=O)N(c3cccc(SC)c3)C2)c(=O)[nH]c1=O (stereo unspecified)	-3	-11%	.	.	-3%	1.7%	-28
CCc1ccccc1NC(=O)NC(C)c1ccc2c(c1)OCO2 (stereo unspecified)	1	6%	18%	1.2	2%	1.3%	-13
COc1ccc2[nH]c(C(=O)O)c(NS(=O)(=O)c3ccc(C)cc3C)c2c1	16	0%	5%	0.6	1%	-20%	-5
CCCOc1ccc(OCCN2CCCC(C)C2)cc1 (stereo unspecified)	-1	6%	-45%	5.2	3%	-9.8%	-3
CCCc1ccc(Oc2c(-c3ccc(O)c(C)c3O)n[nH]c2C)cc1	3	-11%	27%	2.3	-42%[inhibitor]	-2.3%	0
CCOC(=O)c1ccc(N=Nc2c(C)c(C#N)c(O)[nH]c2=O)cc1	-4	-12%	2%	-14	-34%[inhibitor]	.	10
COc1ccc(CC(=O)OCc2nnc(C3COc4ccccc4O3)o2)cc1OC (stereo unspecified)	-17	3%	25%	-2.3	-1%	0.7%	-7
Cc1ccc2c(CC(=O)NCC(C)(C)N3CCOCC3)coc2c1	-4	-23%	3%	3.4	-10%[15.4 µM]	0.3%	-4
CCCn1c(Nc2ccccc2C)nc2ccccc21	?	-9%	-2%	4.3	0%	-1.1%	-33
O=C(NCc1ccncc1)C1CCCCC1	2	12%	21%	2.5	-4%	-1.8%	-3
CN(C)CCNc1ccc2ncn3c4ccc(O)cc4c(=O)c1c23	.	?	.	.	14µM*	-1.5%	-8
COC1C(C)=C(C)C(=O)N1Cc1ccccc1 (stereo unspecified)	7	5%	6%	1.6	11%	1.3%	-11
Cc1oc(-c2ccccc2)nc1C(=O)OCC(=O)NC(C)c1ccccc1 (stereo unspecified)	-1	-1%	.	.	-26%	0.2%	-2
CCCCNC(=O)N1CCC(CCC(=O)N(C)Cc2ccccc2)CC1	-21	-19%	11%	-2.7	7%[15.4 µM]	0.2%	4
Cc1ccc(S(=O)(=O)N2CCCN(c3nccc(C(F)(F)F)n3)CC2)cc1	5	-2%	11%	1.0	4%	.	-15
Cc1ccccc1N1C(=O)CN(Cc2sccc2C)C1=S	-7	-5%	1%	4.5	12%	1.6%	-2
Cc1ccc(C(=O)NNC(=O)CSc2n[nH]c(-c3cccnc3)n2)cc1	-7	-10%	-50%	2.6	-25%[15.4 µM]	.	-13
New compounds follow.
SMILES	TRPV1 potentiator	gsp antagonist	Sfp PPTase inh	Menin-MLL FL inh	gsp agonist	ClpP mod	D2 potentiator
CCOC(=O)c1[nH]c(C)c(C(=O)Nc2cc(OC)ccc2OC)c1C	?	4%	-3%	4.6	11%	-1.7%	4
COc1ccc(NC(=O)c2ccc(Br)o2)cc1	-11	5%	12%&-6%	0.2[94.6 µM]	.	-0.5%	-10
CSCC[C@H](N)C(=O)N1CCC(C(=O)N[C@@H](Cc2c[nH]c3ccccc23)C(=O)O)CC1	-16	-10%	3%	?	-1%	-2.5%	-7
CCCc1cc(=O)oc2c(CN3CCOCC3)c(O)ccc12	10	5%	4%	-9.5	-5%	-2.3%	-5
COc1ccc(CC(=O)N2CC(=O)N(CCc3ccccc3)C(=O)C2)cc1	10	-6%	0%	-1.8	17%	1.3%	-34
COc1ccc(-n2c(Cc3cccn3C)nnc2SCC(=O)Nc2nc(C)cs2)cc1	6	-8%	10%	-0.8	-35%	-0.3%	1
COc1ccc(C(C)=O)cc1COC(=O)CCC(=O)c1cccs1	.	-5%	.	.	-25%	-0.9%	-2
Cc1ccc(C)c(S(=O)(=O)N2CCCC2CNC(=O)C(=O)NCc2cccs2)c1 (stereo unspecified)	1	0%	.	.	-4%[15.4 µM]	.	-1
Cc1cc(NC(=O)c2ccco2)c(=O)n(Cc2cccc(C(F)(F)F)c2)c1	-6	-6%	5%	2.2	0%	.	-8
COc1ccc2no[n+]([O-])c2c1	-15	.	-14%	0.6	.	.	.
C/C(=N\NC(=O)c1cc(C)oc1C)c1ccc2ccccc2c1	-12	-1%	-8%	-3.1	-6%[15.4 µM]	.	-2
c1ccc(-c2nc(NCc3cccnc3)c3ccccc3n2)cc1	3	-28%	9%	-2.6	18%	-7.5%	-8
CC1=C/C(=N\NC(=O)c2ccccc2)CC1	13	-10%	12%	2.6	42%[15.4 µM]	.	-2
O=C(CN1C(=O)C(=O)c2ccccc21)c1ccc(Cl)cc1	-56	-3%	21%	3.5	14%	-0.1%	-36
Cc1ccc(-n2nc3c(c2NC(=O)C2CC2)CS(=O)(=O)C3)cc1	-10	9%	14%	-0.3	-7%	-0.8%	-5
CCOC(=O)C1=C(O)/C(=C\c2ccc(CNC(=O)C(=O)Nc3ccc(C)c(C)c3)o2)N=C1C	-5	.	-26%	?	.	.	.
C=CCN=c1scc(-c2ccco2)n1/N=C/c1ccc(O)c(O)c1O	2	-29%	7.1µM*	9.0	16%[15.4 µM]	.	101*
CCc1ccccc1Nc1cc(C(=O)NCc2ccccn2)c2ccccc2n1	2	-27%	9%	-4.1	-1%[15.4 µM]	.	-5

Screening data: PubChem, National Center for Advancing Translational Sciences (NCATS)

Compounds were not picked by outcome (roughly 5.1% active in at least one column).
